hNpr1 antagonist: blocks ANP-stimulated signaling of human Npr1 receptor | Potency, µM (top dose mostly 46.3 µM), inactives show top-dose activity change, negative = inhibition, hits mostly inhibitors | AID 1347048 | 1.6% of 76,000 active | P16066 | HEK293 hNpr1 GloSensor cGMP, ANP-stimulated luminescence; active = well fitted inhibition curve with a large enough effect; inconclusive = small, poorly fitted or top-dose-only effect; inactive = no such curve, though single readings can be large or run the other way;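 also: nearly all actives have a fitted effect of over 60% in size; nearly all hits also lower the signal before the agonist is added; a reference antagonist and vehicle were the controls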
Target sequence (P16066 whole entry, looked up): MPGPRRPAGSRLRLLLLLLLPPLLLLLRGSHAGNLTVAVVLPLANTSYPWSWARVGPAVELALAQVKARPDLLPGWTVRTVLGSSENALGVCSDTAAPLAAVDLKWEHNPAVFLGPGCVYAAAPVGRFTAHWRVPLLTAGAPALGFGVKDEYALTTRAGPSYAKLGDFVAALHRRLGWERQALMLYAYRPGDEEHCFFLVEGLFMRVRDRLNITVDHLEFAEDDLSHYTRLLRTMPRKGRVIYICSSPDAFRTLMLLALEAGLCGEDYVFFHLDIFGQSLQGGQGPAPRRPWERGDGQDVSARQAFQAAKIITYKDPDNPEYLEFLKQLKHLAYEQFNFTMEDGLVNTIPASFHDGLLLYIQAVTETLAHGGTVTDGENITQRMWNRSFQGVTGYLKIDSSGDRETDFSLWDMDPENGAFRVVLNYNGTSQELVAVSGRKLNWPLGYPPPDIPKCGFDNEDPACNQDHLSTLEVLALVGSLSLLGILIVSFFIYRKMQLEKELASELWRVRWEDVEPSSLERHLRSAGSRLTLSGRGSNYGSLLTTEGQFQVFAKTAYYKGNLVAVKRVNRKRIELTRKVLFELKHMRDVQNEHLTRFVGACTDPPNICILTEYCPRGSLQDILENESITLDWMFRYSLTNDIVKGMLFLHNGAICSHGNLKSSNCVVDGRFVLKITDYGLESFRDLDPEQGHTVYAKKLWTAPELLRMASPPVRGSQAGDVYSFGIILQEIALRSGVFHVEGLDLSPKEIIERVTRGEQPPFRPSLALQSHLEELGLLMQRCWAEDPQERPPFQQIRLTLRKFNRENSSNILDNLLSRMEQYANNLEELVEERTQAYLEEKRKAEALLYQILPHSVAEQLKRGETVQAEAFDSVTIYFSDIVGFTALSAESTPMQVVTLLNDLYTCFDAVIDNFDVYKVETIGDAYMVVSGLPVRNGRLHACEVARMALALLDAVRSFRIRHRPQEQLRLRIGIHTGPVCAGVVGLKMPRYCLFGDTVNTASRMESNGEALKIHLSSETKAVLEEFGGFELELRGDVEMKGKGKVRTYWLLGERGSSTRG
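Compound pre-incubated 30 min at room temperature on GloSensor-loaded HEK293 cells stably carrying hNpr1 and the pGS-40F cGMP biosensor. Stimulation uses hNppA at 0.1 nM final; luminescence is taken at baseline and 20 min post-agonist.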
* marks the source's active call; other numbers are inactive results; ? = inconclusive; [ ] = another dose, or the depositor's remark. % is scaled to controls: 0 for no effect and ±100 for the full control effect; potency is read from the fitted curve at half-maximal effect.

SMILES | hNpr1 antagonist
CN(C)C[C@@H]1CN(S(C)(=O)=O)C[C@H]1NC(=O)c1ccco1 | 3%
O=C(NCC1(COc2cnccn2)C[C@@H](O)[C@@H](O)C1)Nc1cccnc1 (some centres not stated) | 1%[70.6 µM]
Cc1ccsc1CN1CCCC(CO)CCNC(=O)CC1 (configuration not stated) | -1%
COCCC1(CO)CCCN(C(=O)c2ccc(S(N)(=O)=O)cc2)C1 (configuration not stated) | 2%
CCC(=O)N1Cc2ccccc2OC2(CCN(C)CC2)C1 | -15%
C=CCNC(=O)c1cnn2cc(C)ccc12 | 0%[70.6 µM]
CN1CCCN(C(=O)CCc2ccccc2)c2ccccc21 | -12%
O=C(NC1CCCN(c2cc(-c3ccc(F)cc3)[nH]n2)C1)c1cccnc1 (configuration not stated) | -6%
COCc1cn([C@H]2CO[C@H]3[C@@H]2OC[C@H]3OC(=O)Nc2ccc(C(C)=O)cc2)nn1 | 5%[70.6 µM]
CCNC(=O)CCc1c(CC)nn(-c2ccccc2)c1Oc1ccccc1F | -1%
CO[C@H]1C(=O)N(C(C)C)[C@H]1C1CCN(C(=O)Cn2nc(C(F)(F)F)cc2C)CC1 | 6%
O=S(=O)(c1ccc(F)c(F)c1)N1CCC(n2cnnc2C2CC2)CC1 | 3%
Cc1ccc(CNC(=O)C2CCN(C(=O)c3ncn4c3COC(c3ccc(Cl)cc3)C4)CC2)cc1 (configuration not stated) | 5%
O=c1n(Cc2ccccc2)nc2n1CCN(S(=O)(=O)c1cnc[nH]1)CC2 | 2%
O[C@@H]1CC(CNCc2cccc(Cl)c2)(COc2ccccc2)C[C@@H]1O (some centres not stated) | -28%[70.6 µM]
CC(C)CCN1CCC(N2CCN(C(=O)c3ccc(Cl)s3)CC2)C1=O (configuration not stated) | -5%
COc1cc(OC)c(C(=O)N2CCOCC(CO)C2)cc1OC (configuration not stated) | -2%
CC(=O)c1cc(CN2C[C@H]3CC[C@@H]2CN(S(=O)(=O)N(C)C)C3)n(C)c1 | 2%
CC(C)CCN1CCC(Oc2ncccc2C(N)=O)CC1 | -2%
Cc1ccc(C(=O)N2C[C@@H](F)C[C@H]2C(=O)N2CCCCC2)cc1F | 5%
COc1cccc(CN2C(=O)OC3(CCN(Cc4ccc(F)cc4)CC3)C2(C)c2cccnc2)c1 (configuration not stated) | 3%
COc1ccc(CNC(=O)C[C@@H]2O[C@H](CNC(=O)NC(C)C)[C@@H](O)[C@H]2O)cc1 | 3%[70.6 µM]
COc1ccc(C2Cn3nnc(C(=O)N4CCC(C(=O)NCc5cccc(F)c5)CC4)c3CO2)cc1 (configuration not stated) | -7%
CCS(=O)(=O)N1CC(n2cc(C(=O)NCC3CC3)nn2)C1 | 2%
COc1cccc(CCC2CCCN(C(=O)C3CCCC3)C2)c1 (configuration not stated) | 0%

Reprinted at random: 6 records from the list, in no set order.
SMILES | hNpr1 antagonist
Cc1ccc(CNC(=O)C2CCN(C(=O)c3ncn4c3COC(c3ccc(Cl)cc3)C4)CC2)cc1 (configuration not stated) | 5%
COc1ccc(C2Cn3nnc(C(=O)N4CCC(C(=O)NCc5cccc(F)c5)CC4)c3CO2)cc1 (configuration not stated) | -7%
Cc1ccsc1CN1CCCC(CO)CCNC(=O)CC1 (configuration not stated) | -1%
O[C@@H]1CC(CNCc2cccc(Cl)c2)(COc2ccccc2)C[C@@H]1O (some centres not stated) | -28%[70.6 µM]
CC(C)CCN1CCC(Oc2ncccc2C(N)=O)CC1 | -2%
O=C(NCC1(COc2cnccn2)C[C@@H](O)[C@@H](O)C1)Nc1cccnc1 (some centres not stated) | 1%[70.6 µM]

Back to the main list; the two compounds before the break are reprinted first.
SMILES | hNpr1 antagonist
CCS(=O)(=O)N1CC(n2cc(C(=O)NCC3CC3)nn2)C1 | 2%
COc1cccc(CCC2CCCN(C(=O)C3CCCC3)C2)c1 (configuration not stated) | 0%
CN(C(=O)c1c(F)cccc1Cl)C1CCc2nn(C)c(=O)n2CC1 (configuration not stated) | 2%
Cn1cc(C(=O)NCC2CN(Cc3cccc(OC(F)(F)F)c3)CC23CN(c2ccccc2)C3)cn1 (configuration not stated) | ?
CN(C)c1ccc(CN2CCC3(C2)C(=O)N(Cc2ccccc2)c2ccccc23)cc1 (configuration not stated) | -11%
CCCN1C(=O)Cc2cc(C(=O)NCc3ccco3)ccc21 | -1%
Cc1ccc(-c2nc(C(=O)N3CCN(c4ccc(C)cc4)CC3)no2)cc1 | -1%
O=C(CN1CC2CC(C1)[C@H]1CCCC(=O)N1C2)NCc1cc(F)ccc1F (some centres not stated) | -1%
Cc1noc(-c2ccn3c(CNC(=O)c4ccccc4F)nnc3c2)n1 | 2%
COc1ccc(C(=O)N2CCC3(CC2)N(c2ccccc2)C(=O)CS3(=O)=O)cc1 | -1%
Cc1ccc(C(=O)NCC2(C)CCOCC2)s1 | -2%
COCc1noc([C@@H]2CNC[C@H]2C(N)=O)n1 | -2%
Cn1cnc(S(=O)(=O)N2C[C@@H](C(=O)O)[C@H](c3ccccn3)C2)c1 | -1%
COC(=O)c1ccc2nc(C[C@@H]3C[C@@H](C(C)C)[C@H](CNC4CCCCC4)C=C3C)[nH]c2c1 | -9%
Cc1cccc(OCC(=O)N2[C@@H]3CC[C@H]2CC(NC(=O)c2cnc(C)cn2)C3)c1 (some centres not stated) | -4%
CCOc1cc(=O)n2c(c1C(=O)Nc1ccc(Br)cc1)CCCC2 | -7%
CN1c2cc(C(=O)N3CCN(c4ccc(F)cc4)CC3)ccc2C(=O)N2CCCCC21 (configuration not stated) | 0%
CN1C[C@@H](NC(=O)c2cnccn2)C[C@H]1c1nc(-c2ccc3c(c2)OCO3)no1 | -8%[70.6 µM]
NCc1ccc(-c2nc(C3CCOC3)nn2Cc2ccccc2)cc1 (configuration not stated) | 1%
Cc1noc([C@@H]2CN(C(=O)c3cc(C4CC4)[nH]n3)C[C@H]2C(N)=O)n1 | -5%
CCn1cc(C(=O)N2C[C@@H](COc3ccccc3)[C@H](C(N)=O)C2)cn1 | -4%
Cc1c(Cl)cccc1NC(=O)NCC1CCOCC1 | -3%
O=C(c1ccoc1)N1CC2CC(C1)[C@H]1CCCC(=O)N1C2 (some centres not stated) | 0%
CC1CCc2nn3ccn(CC(=O)Nc4ccc(F)cc4)c(=O)c3c2C1 (configuration not stated) | -3%
Cc1ccc(N2Cc3c(NCCCOC(C)C)ncnc3N(C)CC2=O)cc1 | 10%
COCCC1(NC(=O)c2ccccc2)CCN(C(=O)c2ocnc2C)CC1 | 4%
Cc1ccc(CN2CCN(C(=O)CCC[C@H]3NC[C@@H]4C[C@H]3CN(Cc3ccccc3)C4)CC2)cc1 | -2%
SMILES | hNpr1 antagonist
COc1ccc(S(=O)(=O)N2CCCC(Cc3noc(-c4ccccc4)n3)C2)cc1 (configuration not stated) | ?
COc1ccccc1C(=O)Nc1ccc2c(c1)CN(Cc1ccccc1F)C(=O)C(C)O2 (configuration not stated) | -19%
C[C@@H](NC(=O)C1=C[C@@H](NC(=O)CC2(CC(=O)O)CCCC2)[C@@H](O)[C@H](O)C1)C(N)=O | 7%[70.6 µM]
COc1ccc(-c2cc(N3CCC(NC(=O)c4cccc(F)c4)C3)n[nH]2)cc1 (configuration not stated) | -17%
COc1ccc(-c2noc([C@@H]3CCCN3C(=O)c3ccc(C(C)(C)C)cc3)n2)cc1 | -3%
O=c1c2c(nc3cc[nH]n13)CN(S(=O)(=O)c1ccc(F)c(Cl)c1)CC2 | -1%
c1cncc(COc2cc3c(cn2)NCCN(Cc2ccsc2)C3)c1 | -10%[70.6 µM]
Cn1cnc2cc(-c3ccc(F)cc3)cc(C(=O)NCC3CCOCC3)c21 | -9%[70.6 µM]
COc1ccc(C(=O)N2CCC([C@H]3[C@@H](OC)C(=O)N3C(C)C)CC2)c(OC)n1 | 3%
Cc1occc1C(=O)N1CCC(CCC(=O)N2CCN(c3ccccc3)CC2)CC1 | 5%
COc1ccc(-c2cc(N3CCCC(NC(=O)c4ccccn4)C3)n[nH]2)cc1 (configuration not stated) | -13%
COc1ccc(C(=O)N2CCOCC3(CN(Cc4cccc(C#N)c4)C3)C2)cc1OC | 7%[70.6 µM]
O=C(c1ccc(N2CC3CC(C2)[C@H]2CCCC(=O)N2C3)nc1)N1CCN(c2ccccc2)CC1 (some centres not stated) | -3%
CCc1ccccc1NC(=O)Cn1cccc1-c1nc(-c2ccccc2)no1 | -3%
COc1cccc(CN2CCCC3(CCN(S(=O)(=O)N(C)C)C3)C2=O)c1 (configuration not stated) | 4%
CNc1ccc(C)cc1C(=O)N1CCN(C)C2(CCN(C)CC2)C1 | -4%
CCS(=O)(=O)N1CCCOCCNC(=O)[C@@H]2CCCC[C@@H]21 | -1%
COCC(=O)N[C@H]1C[C@@H](CO)N(Cc2ccc(C)o2)C1 | -1%
O=C(NC1C[C@H]2CC[C@@H](C1)N2C(=O)C1CCCC1)c1ccncc1 (some centres not stated) | 1%
Cc1ccccc1Cn1nc(C2CCOC2)nc1C1(C(N)=O)CC1 (configuration not stated) | 10%
COCCNC(=O)c1cc(-c2cnn(Cc3ccccc3)c2)cc2ncn(C)c12 | 0%[70.6 µM]
O=C1CCC(CCC(=O)N2CCN(c3ccccc3F)CC2)(Cc2ccc3ccccc3c2)N1 (configuration not stated) | 0%
COc1c(F)cc([C@@H]2C[C@H](NC(C)=O)C[C@H](C(C)C)O2)cc1Cl | -1%
Cc1cccnc1CN(C)C(=O)C1CCC(=O)N(CCc2cccc(F)c2)C1 (configuration not stated) | 14%
COc1ccc(C(=O)N2CCOCC3(CN(Cc4ccc(F)c(Cl)c4)C3)C2)cc1OC | 1%

Part of the list above, comma-delimited:
Molecule,hNpr1 antagonist
COc1ccc(-c2noc([C@@H]3CCCN3C(=O)c3ccc(C(C)(C)C)cc3)n2)cc1,-3%
O=C1CCC(CCC(=O)N2CCN(c3ccccc3F)CC2)(Cc2ccc3ccccc3c2)N1 (configuration not stated),0%

Returning to the listing, starting two compounds before the break.
SMILES | hNpr1 antagonist
Cc1cccnc1CN(C)C(=O)C1CCC(=O)N(CCc2cccc(F)c2)C1 (configuration not stated) | 14%
COc1ccc(C(=O)N2CCOCC3(CN(Cc4ccc(F)c(Cl)c4)C3)C2)cc1OC | 1%
O=C1CC2(CCN(Cc3ccccc3)CC2)Oc2cc(Cl)ccc21 | -9%
CCn1nccc1C(=O)N1C[C@@H](Oc2ccccc2)C[C@@H]1C(=O)N1CCOCC1 | -3%
COc1ccc(C(=O)N2CCC(Cc3nc(C(C)C)no3)CC2)cc1OC | ?
O=C(Nc1cccc(C(F)(F)F)c1)N[C@H]1CO[C@H]2[C@@H]1OC[C@@H]2n1nnnc1Oc1ccc(-n2ccnc2)cc1 | ?
CN(Cc1cccc(C(F)(F)F)c1)Cc1cccn1C | 26%[70.6 µM]
O=C(Cc1cccs1)NC1CC(c2cc(N3CCC(O)C3)ncn2)C1 (configuration not stated) | 18%
C[C@@H](N)C(=O)N1CCC2(CC1)Nc1ccccc1NC2=O | -2%
CCNC(=O)N1C[C@@H](F)[C@@H](OCc2nc3ccc(C)cc3[nH]2)C1 | 3%[70.6 µM]
NS(=O)(=O)c1ccc(CCNCC2(O)CNCCOC2)cc1 (configuration not stated) | 1%
CCNc1ncc(C(=O)N(CCc2ccccc2)Cc2ccco2)cn1 | -3%
COc1cc(F)ccc1-c1cn(C)c(=O)n2cc(COc3ccc(C(=O)O)cc3)nc12 | 0%[70.6 µM]
COc1ccc(C(=O)NC2CCN(c3cc(-c4ccc(Cl)cc4)[nH]n3)C2)cc1OC (configuration not stated) | -15%
O=C(NCC1CN(C(=O)Cc2ccc(OC(F)(F)F)cc2)CC12CN(c1ccccc1)C2)Nc1ccccc1 (configuration not stated) | -8%
O=C(CN1CC2CC(C1)[C@H]1CCCC(=O)N1C2)N1CCN(c2ccc(F)cc2)CC1 (some centres not stated) | 5%
O=C1NN=C(c2cccnc2)C12CCN([S+](=O)([O-])c1cccc(C(F)(F)F)c1)CC2 | ?
CN(Cc1nccn1C)C(=O)c1cc(CN2CCC(Cc3ccccc3)CC2)on1 | 2%
Cn1cc(-c2ccccc2)cc1C(=O)NCc1cccs1 | -2%
COc1ccc(-c2[nH]nc3ncc(-c4cccnc4OC)nc23)c(C)c1 | -2%[70.6 µM]
CCCN(C)c1nccnc1OC1CCN(C(=O)c2ccc(F)cc2)C1 (configuration not stated) | -11%
O=C(O)CCn1ncc2cc(OC3CCN(C(=O)Oc4ccccc4)CC3)ccc21 | 2%[70.6 µM]
O=C(c1sccc1Cl)N1CCn2nc(C(O)c3ccccc3)cc2C1 (configuration not stated) | 3%
O=C(Cn1c(=O)oc2ccccc21)N1CCC2(CC1)CC(N1CCCCC1)CCO2 (configuration not stated) | 9%
Cc1ccccc1-c1cnc2[nH]cc(CC(=O)NC(C)C)c2c1 | 28µM*
COCCn1c(COc2c(C)nc(C)nc2C)nnc1C1CC(N)C1 (configuration not stated) | 11%
COc1cccc(-c2ccc(C(=O)NCCCn3ccnc3C(C)C)cn2)c1 | 2%
Cc1noc([C@@H]2CN(C(=O)CCCc3nc4ccccc4s3)C[C@H]2C(N)=O)n1 | -2%
CS(=O)(=O)c1ccc(-c2cnc([C@@H]3COCCN3C3CCOCC3)[nH]2)cc1 | -3%[70.6 µM]
CN1CCN(c2cc(=O)c3ccnc(-c4ccc(F)cc4)c3o2)CC1 | -2%[70.6 µM]
CN(C)C(=O)Cc1c[nH]c2ncc(-c3cccnc3)cc12 | -1%[70.6 µM]
CN(C)c1cnn(CC(=O)N2CCC(C(=O)N3CCOCC3)CC2)c(=O)c1 | -1%

Screening data deposited in PubChem BioAssay by National Center for Advancing Translational Sciences (NCATS).

The list is partial; the hit share may differ from the screen's.
